UCH37 inh = inhibitors of human deubiquitinating enzyme UCH37 | actives 0.33% (n = 330,000) | inhibition, % (concentration not given with the values) | AID 588478 | purified proteasome/UCH37, Ub-AMC cleavage fluorescence;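 active means mean of two replicates above 20%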;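 further: 0% = compound-free wells with enzyme and 100% = wells lacking proteasome; stock transfer was 100 nL into about 20 µL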
Target sequence (Q9Y5K5 whole entry, looked up): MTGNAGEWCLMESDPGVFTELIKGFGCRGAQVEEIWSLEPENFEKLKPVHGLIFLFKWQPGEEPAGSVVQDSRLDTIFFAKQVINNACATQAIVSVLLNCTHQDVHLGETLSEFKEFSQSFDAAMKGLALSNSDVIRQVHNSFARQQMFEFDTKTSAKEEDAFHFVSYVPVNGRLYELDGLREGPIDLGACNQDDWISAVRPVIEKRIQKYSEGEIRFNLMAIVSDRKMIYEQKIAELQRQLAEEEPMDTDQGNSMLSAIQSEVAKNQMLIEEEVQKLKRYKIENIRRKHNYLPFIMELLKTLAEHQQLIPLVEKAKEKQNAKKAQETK
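Signal – fluorescence, ex 355 nm, em 460 nm · System – Proteasome-bound UCH37 · Input – 0.15 nM proteasome as dispensed · Timing – 30 min preincubation with enzyme, 25 min cleavage at room temperature · Read-out basis – percent inhibition of cleavage signal versus uninhibited and no-proteasome wells · Medium – Tris-HCl pH 7.4 with ATP-MgCl2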
Ecoli growth = E. coli growth inhibition; Escherichia coli growth, OD600, 23 h; active compounds read low; OD600 absorbance (test concentration not listed); actives 0.21% (n = 330,000); AID 1053175;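 active means OD600 absorbance below the run mean of sample wells minus 3.6 SD, in any replicate, cut at about 0.56 in these data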;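 further: stock transfer was 300 nL into about 60 µL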
MLL AF4-AF9 inh = blocks AF4 peptide binding to human AF9 | P42568 | AlphaScreen, biotin-AF4 peptide binding to FLAG-AF9 | inhibition, % at 10 µM | actives 0.47% (n = 350,000) | AID 651704;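 active means every replicate reaching a set inhibition limit, whatever the replicate mean, cut at about 25% in these data; inconclusive means mean inhibition reaches that limit but some replicates miss it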;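 further: 0% = plate neutral control median and 100% = total signal loss; the record names both 10 and 1 µM as test concentration; the first replicate is given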
Target sequence (P42568 whole entry, looked up): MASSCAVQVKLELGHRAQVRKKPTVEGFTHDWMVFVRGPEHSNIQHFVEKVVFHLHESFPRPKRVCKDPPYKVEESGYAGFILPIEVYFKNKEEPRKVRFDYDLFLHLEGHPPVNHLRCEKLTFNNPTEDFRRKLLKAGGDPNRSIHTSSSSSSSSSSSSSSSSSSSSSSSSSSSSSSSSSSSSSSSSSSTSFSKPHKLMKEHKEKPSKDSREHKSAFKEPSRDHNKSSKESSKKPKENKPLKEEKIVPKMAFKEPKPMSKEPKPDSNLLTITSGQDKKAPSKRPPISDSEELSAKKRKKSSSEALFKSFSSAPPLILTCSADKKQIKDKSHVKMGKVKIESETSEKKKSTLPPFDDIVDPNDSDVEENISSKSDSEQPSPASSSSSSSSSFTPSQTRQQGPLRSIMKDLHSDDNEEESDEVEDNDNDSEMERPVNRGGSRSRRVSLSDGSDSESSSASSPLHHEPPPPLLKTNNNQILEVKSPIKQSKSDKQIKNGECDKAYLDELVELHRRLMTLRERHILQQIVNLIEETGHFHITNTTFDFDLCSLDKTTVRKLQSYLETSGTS
rRNA inh HTS = selective bacterial rRNA inhibition in E. coli. E. coli WT GFP vs humanized-ribosome RFP mutants, fluorescence, 24 h; active compounds read low; DMSO median 0, no signal -100. GFP signal change (wild-type ribosome), % (concentration not given with the values). actives 1.6% (n = 350,000). AID 720706;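 active means significant combined selectivity score with lowered wild-type GFP, culture density cut under 30%, mutant RFP and density less affected; inactive means any of these conditions unmet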; further: one replicate is shown; some compounds called inactive have numbers as strong as hits
T cruzi repl = blocks replication of Trypanosoma cruzi | T. cruzi beta-gal in NIH3T3, luminescence, 90 h | inhibition, % (concentration not given with the values) | actives 1.4% (n = 300,000);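 active means mean inhibition across valid replicates above about 55%, limit read from the data; inconclusive means mean below that limit but half or more replicates reach it; inactive means mean below it, under half of replicates reach it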;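 further: signal also drops with host cell toxicity which is not excluded here; 0% = plate median of DMSO wells and 100% = zero luminescence signal; higher percent means less beta-gal luminescence so fewer parasites; stock transfer was 50 nL into about 50 µL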
Beta cell apopt = blocks beta cell apoptosis. AID 435005. actives 0.8% (n = 300,000). INS-1E cytokine-induced death, ATP luminescence, 48 h; percent of positive-control rescue, neutral wells zero. protection from apoptosis, % (no concentration beside the values);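 active means all replicates at 75% or more, or half of them and the mean; inconclusive means half reach 75% but not the mean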;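 further: 0% = cytokine-treated negative control wells and 100% = positive control rescue; higher means more ATP so stronger rescue from cytokine killing; wells of about 40 µL received 100 nL stock; the first replicate is given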
A1 inh = inhibitors of the anti-apoptotic protein A1, read as caspase activation; MEF A1-2A-BIM cells, Caspase-Glo 3/7 luminescence, 3 h; percent of clofoctol response, vehicle zero; caspase activation, % (no concentration beside the values); actives 0.066% (n = 330,000);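 active means over half of replicate activation scores above 10%, or exactly half above 10 with the replicate mean above 10; inconclusive means replicate mean below 10 yet half the replicates above 10; inactive means over half of replicates below 10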;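 further: wells of about 30 µL received 50 nL stock; many hits fall short of the cut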
FGF22 binding = FGF22 (human) thermal shift binding; Q9HCT0; recombinant FGF22 thermal shift, SYPRO orange fluorescence; percent of sucrose octasulfate shift, DMSO zero; calls only at 9.99 µM; actives 1.5% (n = 340,000); AID 651658;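 active means melting point raised past a set limit in the mean and every replicate; inconclusive means no clear call; three in four hits are not shown here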
Target sequence (Q9HCT0 whole entry, looked up): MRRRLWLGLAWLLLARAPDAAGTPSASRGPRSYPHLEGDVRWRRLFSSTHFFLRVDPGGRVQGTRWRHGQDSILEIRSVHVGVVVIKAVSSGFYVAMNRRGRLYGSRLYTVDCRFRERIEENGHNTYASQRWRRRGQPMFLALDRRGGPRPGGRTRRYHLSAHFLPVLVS
rRNA inh HTS OD600 = second read-out of rRNA inh HTS, no call of its own (marks repeat the call); OD600 change, %; measured here: OD600 growth;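 optical density of the mix in the first replicate; 0 = DMSO median and -100 = no signal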
rRNA inh HTS RFP = further read-out of rRNA inh HTS, marked with its call; RFP signal change, %; measured here: RFP humanized mutant strains;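 first replicate; 0 = DMSO median and -100 = no signal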
* = called active by the depositor. Some of the compounds tested; count on the stated rates, not on these rows.

For COCCCn1c(=O)c2ccccc2n(Cc2cc(C(=O)OC)ccc2OC)c1=O the results were UCH37 inh 1.5, Ecoli growth 0.71, MLL AF4-AF9 inh 3.8, rRNA inh HTS -4, T cruzi repl -1, A1 inh -0.7, FGF22 binding inactive, rRNA inh HTS OD600 -4 and rRNA inh HTS RFP -1.1.
COc1ccc(-c2cc(N)n(CCC#N)n2)c(OC)c1 was read as UCH37 inh 0.9, Ecoli growth 0.71, T cruzi repl -8, Beta cell apopt 0 and A1 inh -0.6.
For CCOC(=O)C1=C(C)N(CCCC(=O)O)C(=O)NC1c1ccccc1OC(=O)c1cccs1 (centres undefined) the results were MLL AF4-AF9 inh 3.4, rRNA inh HTS 12, T cruzi repl 2, Beta cell apopt -1, A1 inh -1.1, FGF22 binding inactive, rRNA inh HTS OD600 10 and rRNA inh HTS RFP 2.9.
Screening Cc1ccc(NC(=O)CCc2nnc3ccc(N4CCC(C)CC4)nn23)nc1 returned UCH37 inh -0.2, Ecoli growth 0.67, MLL AF4-AF9 inh 0.4, rRNA inh HTS -11, T cruzi repl 8, Beta cell apopt 3, A1 inh -0.6, FGF22 binding inactive, rRNA inh HTS OD600 -2 and rRNA inh HTS RFP 1.8.
`COc1ccc(NC(=O)C/C(C)=N/NC(=O)c2cnccn2)c(OC)c1` gave MLL AF4-AF9 inh -1.5, rRNA inh HTS 5, T cruzi repl -2, Beta cell apopt -4, A1 inh 1.3, FGF22 binding inactive, rRNA inh HTS OD600 14 and rRNA inh HTS RFP -1.4.
Screening COc1ccc(-c2csc3ncnc(N4CCN(S(=O)(=O)c5ccc(C)c(C)c5)CC4)c23)cc1 returned UCH37 inh -1.1, Ecoli growth 0.72, MLL AF4-AF9 inh -0.7, rRNA inh HTS 3, T cruzi repl 55*, Beta cell apopt 12, A1 inh 0.3, FGF22 binding inactive, rRNA inh HTS OD600 10 and rRNA inh HTS RFP -0.7.
For COCc1ccc(CN2CCC(C(=O)Nc3cccc(-c4cscn4)c3)CC2)o1 the results were UCH37 inh -1.7, Ecoli growth 0.59, MLL AF4-AF9 inh 2.5, rRNA inh HTS 4, T cruzi repl -5, Beta cell apopt -10, A1 inh -0.6, FGF22 binding inactive, rRNA inh HTS OD600 10 and rRNA inh HTS RFP -0.9.
Screening Cc1occc1C(=O)N(C)Cc1nc(-c2ccccc2)no1 returned UCH37 inh 5.4, Ecoli growth 0.69, MLL AF4-AF9 inh 1.2, rRNA inh HTS 10, T cruzi repl 3, Beta cell apopt -1, A1 inh 0.3, FGF22 binding inactive, rRNA inh HTS OD600 0 and rRNA inh HTS RFP -0.6.
`COc1ccc(-c2nnc(SCC(=O)N3CCCCC3)o2)c(OC)c1` gave UCH37 inh 1.7, Ecoli growth 0.73, T cruzi repl 13, Beta cell apopt -2 and A1 inh 0.9.
For COC(=O)c1cn(C(=O)c2cc(Br)ccc2Cl)c2ccccc12 the results were UCH37 inh 2.9, Ecoli growth 0.65, MLL AF4-AF9 inh 1.1, rRNA inh HTS 0, T cruzi repl 3, Beta cell apopt 2, A1 inh 0.7, FGF22 binding inactive, rRNA inh HTS OD600 -9 and rRNA inh HTS RFP 1.7.
N#Cc1ccc(-c2ccc(Cl)cc2)nc1SCC(=O)c1cccc(Cl)c1 was read as UCH37 inh -0.7, Ecoli growth 0.77, T cruzi repl 6, Beta cell apopt 91* and A1 inh -1.3.
Cc1nnsc1C(=O)NC1CCCCC1 was read as UCH37 inh 5.9, Ecoli growth 0.7, MLL AF4-AF9 inh 1.8, rRNA inh HTS 4, T cruzi repl -11, A1 inh 0.6, FGF22 binding inactive, rRNA inh HTS OD600 3 and rRNA inh HTS RFP 3.1.
`CC(=O)c1cc(-c2ccccc2)n(CCC(=O)NCc2cccs2)c1C` gave UCH37 inh -0.8, Ecoli growth 0.74, T cruzi repl 12, Beta cell apopt 3 and A1 inh 0.3.
CCOP(=O)(c1ccc(N(C)C)cc1)C(O)c1ccc(C)cc1 (centres undefined) was read as UCH37 inh 0.8, Ecoli growth 0.63, MLL AF4-AF9 inh -1.3, rRNA inh HTS -1, T cruzi repl -17, Beta cell apopt -7, A1 inh -0.7, FGF22 binding inactive, rRNA inh HTS OD600 10 and rRNA inh HTS RFP -2.4.
CCn1c(SCC(=O)NC2CC2)nnc1-c1ccc(C)cc1 was read as UCH37 inh -3.1, Ecoli growth 0.71, MLL AF4-AF9 inh -1.4, rRNA inh HTS 6, T cruzi repl -8, Beta cell apopt 0, A1 inh 0.1, FGF22 binding inactive, rRNA inh HTS OD600 6 and rRNA inh HTS RFP -2.5.
Screening Cc1ccc(S(=O)(=O)N2CCN(C(=O)CCCN3C(=O)NC4(CCCC4)C3=O)CC2)cc1C returned UCH37 inh 2.4, Ecoli growth 0.64, MLL AF4-AF9 inh -3.7, Beta cell apopt -4, A1 inh 0.3 and FGF22 binding inactive.
COc1ccc(NC(=O)c2cccc(C#N)c2)cc1NS(=O)(=O)c1ccc(F)cc1 was read as UCH37 inh 2.1, Ecoli growth 0.64, T cruzi repl -3, Beta cell apopt 4 and A1 inh 0.3.
`CC(C)n1nnnc1SCC(=O)NCc1cccs1` gave UCH37 inh 0.2, Ecoli growth 0.66, T cruzi repl 1 and A1 inh 2.0.
NCCCNCCCCNCCCN was read as UCH37 inh 2.2, Ecoli growth 0.68, MLL AF4-AF9 inh inconclusive and FGF22 binding inactive.
Screening COC(=O)[C@@]1(C)[C@H]2C(=O)N(Cc3ccccc3)C(=O)[C@H]2[C@H]2CN=C(SCc3ccccc3)N21 returned UCH37 inh 2.8, Ecoli growth 0.67, MLL AF4-AF9 inh -0.2, rRNA inh HTS 10, rRNA inh HTS OD600 7 and rRNA inh HTS RFP -2.4.
`O=C1NCCN1CCN1C(=O)c2ccccc2NC1c1ccccc1` (centres undefined) gave UCH37 inh -391, Ecoli growth 0.68, MLL AF4-AF9 inh -6.1, rRNA inh HTS 0, T cruzi repl 1, Beta cell apopt -4, A1 inh -0.2, FGF22 binding inactive, rRNA inh HTS OD600 6 and rRNA inh HTS RFP 0.0.
`Cc1onc(-c2ccccc2)c1C(=O)N/N=C/c1cccs1` gave MLL AF4-AF9 inh -0.8, rRNA inh HTS 3, T cruzi repl -14, Beta cell apopt -5, A1 inh 0.1, FGF22 binding inactive, rRNA inh HTS OD600 -2 and rRNA inh HTS RFP 5.4.
`CCN(CC)CCn1c(=N)n(CC(=O)c2ccc(C)cc2)c2ccccc21` gave UCH37 inh 4.9, Ecoli growth 0.67, MLL AF4-AF9 inh 0.3, rRNA inh HTS -1, T cruzi repl -1, A1 inh 0.8, FGF22 binding inactive, rRNA inh HTS OD600 10 and rRNA inh HTS RFP 1.9.
Screening O=C1CC(SCc2nc3ccccc3[nH]2)C(=O)N1c1ccc(F)cc1 (centres undefined) returned UCH37 inh -3.8, Ecoli growth 0.75, T cruzi repl -12, Beta cell apopt -1 and A1 inh 0.0.

Looked up one by one from the list above, two records:
`CC(=O)c1cc(-c2ccccc2)n(CCC(=O)NCc2cccs2)c1C` gave UCH37 inh -0.8, Ecoli growth 0.74, T cruzi repl 12, Beta cell apopt 3 and A1 inh 0.3.
`O=C1NCCN1CCN1C(=O)c2ccccc2NC1c1ccccc1` (centres undefined) gave UCH37 inh -391, Ecoli growth 0.68, MLL AF4-AF9 inh -6.1, rRNA inh HTS 0, T cruzi repl 1, Beta cell apopt -4, A1 inh -0.2, FGF22 binding inactive, rRNA inh HTS OD600 6 and rRNA inh HTS RFP 0.0.

Continued:
Cc1ccc(C(C(=O)NCc2ccccc2)N(Cc2ccco2)C(=O)c2snc(C(N)=O)c2N)o1 (centres undefined) was read as UCH37 inh 0.5, Ecoli growth 0.65, MLL AF4-AF9 inh 2.0, rRNA inh HTS -2, T cruzi repl -15, Beta cell apopt -6, A1 inh 0.4, FGF22 binding inactive, rRNA inh HTS OD600 -19 and rRNA inh HTS RFP 2.6.
Screening CCOc1ccc(S(=O)(=O)Nc2ccc(C(=O)N3CCCC3)cc2)cc1 returned UCH37 inh 1.2, Ecoli growth 0.71, MLL AF4-AF9 inh -15, rRNA inh HTS 4, T cruzi repl 19, Beta cell apopt 0, A1 inh -0.4, FGF22 binding inactive, rRNA inh HTS OD600 -13 and rRNA inh HTS RFP 2.4.
For CCOc1ccc(Cl)cc1CSc1n[nH]c(C)n1 the results were UCH37 inh 3.0, Ecoli growth 0.7, MLL AF4-AF9 inh -1.6, rRNA inh HTS -22, T cruzi repl -3, Beta cell apopt -4, A1 inh 0.3, FGF22 binding inactive, rRNA inh HTS OD600 -39 and rRNA inh HTS RFP -5.8.
For Cc1cc(C)n2nc(N)c(N=Nc3ccccc3)c2n1 the results were UCH37 inh 12, Ecoli growth 0.63, rRNA inh HTS 14, T cruzi repl 8, Beta cell apopt 2, A1 inh -1.6, FGF22 binding inactive, rRNA inh HTS OD600 6 and rRNA inh HTS RFP 0.7.
Screening O=C(CCN1C(=O)c2ccccc2C1=O)NCc1ccccc1 returned UCH37 inh 2.4, Ecoli growth 0.65, MLL AF4-AF9 inh -1.2, rRNA inh HTS 8, T cruzi repl -14, Beta cell apopt -2, A1 inh -0.5, FGF22 binding inactive, rRNA inh HTS OD600 12 and rRNA inh HTS RFP -1.4.
Screening CCCCn1c(N)c(N(CCOC)C(=O)c2ccc(C)o2)c(=O)[nH]c1=O returned UCH37 inh 0.1, Ecoli growth 0.67, MLL AF4-AF9 inh -5.0, rRNA inh HTS 10, T cruzi repl 4, A1 inh -0.3, FGF22 binding inactive, rRNA inh HTS OD600 18 and rRNA inh HTS RFP -1.1.
CSCC[C@H](NC(=O)N1CCn2c1nc1ccccc12)C(=O)NCC1CCCO1 (some centres undefined) was read as UCH37 inh 2.0, Ecoli growth 0.68, MLL AF4-AF9 inh -14, rRNA inh HTS 6, T cruzi repl -5, Beta cell apopt -1, A1 inh -0.1, FGF22 binding inactive, rRNA inh HTS OD600 2 and rRNA inh HTS RFP 3.0.
CC1CCCN(C(=O)c2ccc(OC3CCN(CCc4ccccc4)CC3)cc2)C1 (centres undefined) was read as UCH37 inh 0.0, Ecoli growth 0.71, MLL AF4-AF9 inh -1.8, rRNA inh HTS -2, T cruzi repl 9, Beta cell apopt -8, A1 inh -0.1, FGF22 binding inactive, rRNA inh HTS OD600 -8 and rRNA inh HTS RFP -1.3.
Screening Cc1nccc2oc(=O)c(NC(=O)c3ccc(Cl)cc3)cc12 returned UCH37 inh 1.7, Ecoli growth 0.72, MLL AF4-AF9 inh -0.4, rRNA inh HTS 5, T cruzi repl -17, Beta cell apopt -15, A1 inh 0.0, FGF22 binding inactive, rRNA inh HTS OD600 7 and rRNA inh HTS RFP 0.2.
Cc1oc(S(=O)(=O)N2CCCCC2)cc1NC(=O)Nc1ccc(Cl)cc1 was read as UCH37 inh 6.0, Ecoli growth 0.67, rRNA inh HTS -20, T cruzi repl 10, Beta cell apopt 3, A1 inh -0.3, FGF22 binding inactive, rRNA inh HTS OD600 8 and rRNA inh HTS RFP -3.2.
